Vaccinia mCherry = vaccinia inhibition (mCherry reporter). Vaccinia virus mCherry reporter infection, fluorescence; about a quarter of the inactives have no number. Potency, µM (highest dose often 36.5 µM), for the others: top-dose activity change, negative = inhibition, hits mostly inhibitors. hit rate 0.63% among 310,000. AID 720579; active = well fitted inhibition curve with a large enough effect; inconclusive = small, poorly fitted or top-dose-only effect; inactive = no such curve, though single readings can be large or run the other way; tested in A549 cells; also: nearly all actives have a fitted effect of over 35% in size; inactives centre near -10
VACV Venus inh = inhibitors of vaccinia virus (Venus reporter) | Vaccinia virus Venus reporter expression, fluorescence | Potency, µM (highest dose often 36.5 µM), inactives show at the top dose activity change, negative = inhibition, most hits filed as inhibitors | hit rate 0.46% among 330,000 | AID 720580; active means well fitted inhibition curve with a large enough effect; inconclusive means small, poorly fitted or top-dose-only effect; inactive means no such curve, though single readings can be large or run the other way; tested in A549 cells; also: nearly all actives have a fitted effect of over 30% in size; inactives centre near -10
* = called active by the depositor; i = inactive; ? = inconclusive; . = not tested or not shown; & = joins results of further samples; [ ] = another dose, or the depositor's remark. % is scaled to controls: 0 for no effect and ±100 for the full control effect; potency is read from the fitted curve at half-maximal effect.

item	SMILES	Vaccinia mCherry	VACV Venus inh
1	Cc1ccc(C(=O)OCC(=O)N(C)C2CCS(=O)(=O)C2)cc1S(=O)(=O)N1CCOCC1 (centres undefined)	-3%	-15%
2	CCc1nc2ccc(C(=O)N3CCN(c4cccc(OC)c4)CC3)cc2nc1CC	-5%&-18%	-21%&-10%
3	COc1ccc(-c2nn(CCC(=O)O)cc2CCC(=O)O)cc1	.	-19%
4	C#CCOCCOCCOCCNc1nc(N2CCN(C(=O)[C@H](CCCN=C(N)N)n3cc(C(N)[C@@H](C)CC)nn3)CC2)nc(N2CCN(C(=O)[C@H](CO)n3cc([C@@H](N)C(C)C)nn3)CC2)n1 (some centres undefined)	-30%	6%
5	CC(c1ccc(O)cc1)(c1ccc(O)cc1)c1ccc(CCBr)cc1	?	?
6	CCOc1ccc(S(=O)(=O)NCc2cccs2)cc1C(C)C	-5%	-19%
7	CC1CCC(NC(=O)CCc2cn(Cc3ccc(F)cc3)c3ccccc23)CC1 (centres undefined)	-19%	-24%
8	C[C@]12CC[C@@H]3c4ccc(O)cc4CC[C@H]3[C@@H]1CC[C@@H]2O	-6%	-19%
9	CCN1/C(=C/c2cc[n+](CCCS(=O)(=O)[O-])c3ccccc23)Sc2ccccc21	i	222%[activator]
10	CCOc1cc(/C=N/NC(=O)c2cccc(S(=O)(=O)N3CCCC3)c2)ccc1OCC(=O)N(C)C	i	-15%
11	COC(=O)c1ccc(CNC(=O)c2c3c(nc4ccccc24)CCN(Cc2ccccc2)C3)cc1	-2%	-9%
12	CCN(CC)c1ccc(CNS(=O)(=O)c2cc3c(cc2C)NC(=O)CO3)cc1	-5%	-3%
13	COc1ccc(C2=NN(C(=O)CSC3=NN4CCCC(=O)N=C4S3)C(c3cccc(OC)c3OC)C2)cc1 (centres undefined)	i	-9%
14	Cc1nn(C)cc1-c1csc(N)n1	-1%	8%
15	CCn1cc(CNC(=O)c2cc(COc3ccc(F)cc3F)on2)cn1	-11%	-17%
16	OC(c1ccc(Cl)c(F)c1)c1ncc(-c2ccccc2C(F)(F)F)[nH]1 (centres undefined)	-26%	-15%
17	Cc1ccc(N(C(=O)NC2CCCCC2)C2=NCCCCC2)cc1	-18%	-2%
18	O=C(NCc1ccccc1)c1ccc(CSc2nc3cccnc3n2Cc2ccccc2F)cc1	-26%	-18%
19	Cn1nnnc1SCC(=O)N1CCN(C(c2ccccc2)c2ccccc2)CC1	.	-23%
20	COc1cc(O)c(NC(C)=O)c2nonc12	-21%	3%
21	CCOC(=O)C1(Cc2cccc(F)c2)CCN(C(=O)C2CCCO2)CC1 (centres undefined)	i	-8%
22	O/N=C(\c1ccc(Cl)cc1)c1cc2ccccc2o1	-5%	-25%
23	CCO[C@H]1OC(C(=O)N2CCN(Cc3ccc4c(c3)OCO4)CC2)=C[C@@H](c2ccc(C(F)(F)F)cc2)[C@@H]1CCCO	i	?
24	C=CCC[C@@H](Cc1ccc(F)cc1)C(=O)OC[C@@H](Cc1c[nH]c2ccccc12)NC(=O)[C@H](CC=C)CC(=O)N[C@H](CO)Cc1ccccc1	-32%	11µM*
25	Cc1ccc(N(CC(=O)NC(C)(C)C)C(=O)CCC(=O)Nc2ccccn2)cc1	i	-5%
26	COc1ccc(N2C(=O)CN=C2Nc2nc(C)cc(C)n2)cc1OC	i	-5%
27	O=C(NCCN1CCCC1)C1COc2ccccc2O1 (centres undefined)	-19%	0%
28	COc1cccc(C(=O)Nc2ccc(NC(=O)C3CCCCC3C(=O)O)cc2)c1 (centres undefined)	-6%	2%
29	CCOCCCNS(=O)(=O)c1ccc2c(c1)CCN2C(=O)CC	-2%	7%
30	O=C(COC(=O)CCCN1C(=O)c2cccc3cccc(c23)C1=O)Nc1ccc(Cl)cc1	i	-5%
31	CCc1ccc(NC(=O)Cn2cc(S(=O)(=O)N3CCCC3)c(S(=O)(=O)N3CCCC3)c2)cc1	-3%	0%
32	COc1ccccc1-c1cn(S(=O)(=O)c2ccc(F)cc2)nc1N	.	?
33	C=CCNc1sc(C(=O)C(C)(C)C)c(N)c1C#N	-14%	-17%
34	CN(c1ccc(C(=O)N2CCOCC2)cc1)S(C)(=O)=O	-9%	-4%
35	NC(=O)NO	-14%	-9%&-14%
36	CC1(C)S/C(=N/N=C/c2cccs2)NC1=O	i	-8%
37	COc1cccc(N2C(=O)CC(N3CCN(CCN=CC4=C(O)CC(C)(C)CC4=O)CC3)C2=O)c1 (centres undefined)	-5%	-13%
38	Cc1cccc(OCC(=O)Nc2ccc3nc(Nc4cccc(Cl)c4)cc(C)c3c2)c1	-2%	-10%
39	O=S(=O)(NCCc1ccccc1)c1ccc(Cl)nc1	-30%	-18%
40	O=C(CN1CCCC1)Nc1sc2c(c1C(=O)Nc1ccccc1)CCCC2	-10%	-2%
41	CN(c1ccc(/C=C/c2ccccc2)cc1)P1(=O)NCCCO1 (centres undefined)	44%[activator]	6%
42	O=C(Nc1cccc(Cl)c1Cl)c1ccc(-c2ccccc2)cc1	i	-9%
43	O=C(COC(=O)c1ccccc1NC(=O)c1ccco1)Nc1ncc(Cl)cc1Cl	.	-1%
44	COc1ccc(Nc2nc3cc(C)ccc3cc2C#N)cc1	-6%	-6%
45	O=C(c1cc2ccccc2cc1O)N1CCN(c2cccc(Cl)c2)CC1	-19%	-30%
46	CS(=O)(=O)N(CC(=O)N1CCN(Cc2ccccc2)CC1)c1cccc([N+](=O)[O-])c1	-18%	1%
47	C(=N\Nc1nncc2ccccc12)/c1ccccc1	-11%	-3%
48	CCOc1cccc(N2C(=O)CC(=O)NC2=O)c1	-3%	13%
49	CCn1c2ccccc2c2nnc(SCC(=O)NCc3cccs3)nc21	-18%	-13%
50	Cc1nc2c(-c3ccccc3)c(C)nn2c(C)c1CCC(=O)NCc1ccco1	-5%	-17%
51	Cc1nonc1NC(=O)CSc1cn[nH]n1	8%	1%
52	CCOC(=O)c1cc2sccc2n1CC(=O)N1CCCc2ccccc21	-20%	-23%
53	CCn1c(CNC(=O)c2ccc(OC)cc2)nnc1SCC(=O)c1ccccc1	-3%	0%
54	CCCOc1ccc(C(=O)NNC(=S)NC(=O)c2ccco2)cc1	11µM*	?
55	COc1ccc(NS(=O)(=O)c2ccc(Br)cc2)cn1	-1%	8%
56	COc1ccc(CCNC(=O)CSc2nc3[nH]ncc3c(=O)n2-c2ccc(Cl)cc2Cl)cc1OC	i	-21%
57	Cc1cc(C(=O)COC(=O)c2ccc3c(c2)NC(=O)CS3)c(C)n1CC1CCCO1 (centres undefined)	-1%	-18%
58	COC(=O)c1ccc(NN=Nc2ccc(C)cc2)cc1	-16%	-14%
59	CCN(CC)c1ccc(S(=O)(=O)N2CCOCC2)cc1NC(=O)CN1C(=O)NC2(CCC(C)CC2)C1=O (centres undefined)	i	-6%
60	Cc1c(Cl)cccc1NC(=O)CCS(=O)(=O)c1ccc(Br)s1	?	-19%

Of the compounds above, 3 contain bromine.
item	SMILES	Vaccinia mCherry	VACV Venus inh
5	CC(c1ccc(O)cc1)(c1ccc(O)cc1)c1ccc(CCBr)cc1	?	?
55	COc1ccc(NS(=O)(=O)c2ccc(Br)cc2)cn1	-1%	8%
60	Cc1c(Cl)cccc1NC(=O)CCS(=O)(=O)c1ccc(Br)s1	?	-19%

Further compounds
item	SMILES	Vaccinia mCherry	VACV Venus inh
61	CCN1CCN(CCC(=O)Nc2ccccc2C)CC1	-9%	6%
62	Cc1ccc(OCC(=O)NC(C)c2ccccc2)c([N+](=O)[O-])n1 (centres undefined)	0%	-12%
63	CC(C)(C)C1CCC(C(=O)OCC(=O)N2CCOCC2)CC1 (centres undefined)	i	-11%
64	CC(=O)Nc1ccc(NC(=O)c2ccccc2C)cc1	-8%	-7%
65	COc1cccc(OC)c1C(=O)Nc1nc(-c2ccccc2)cs1	i	4%
66	CCOC1=C2CN(S(=O)(=O)c3ccc(C)cc3)[C@H](c3cccc4ccccc34)C[C@H]2C(C#N)(C#N)C(C#N)(C#N)C1	i	2%
67	COc1ccc(Cl)cc1Cn1c(C)c(C(=O)NCc2ccc3c(c2)OCCO3)sc1=O	7%	8%
68	CC1(C(=O)O)CCC(C(=O)NCCc2ccccc2)C1(C)C (centres undefined)	i	-18%
69	Cc1nn(CC2CC2)c(=O)n1-c1ccc(Oc2ccccc2)cc1	-8%	-11%
70	CC(=O)Oc1cccc2c1C(=O)C1CC=CC(OC(C)=O)C1C2=O (centres undefined)	-14%	10%
71	CC1CC(C)CN(CC(=O)c2c[nH]c3ccccc23)C1 (centres undefined)	-11%	-6%
72	O=C(Nc1ccc(Cl)cc1)Nc1nccs1	?	?
73	COc1cccc(C(=O)COc2ccc3ccc(=O)oc3c2)c1	i	0%
74	Cc1nnc(SCC(=O)NNC(=O)CC#N)[nH]c1=O	-16%	1%
75	CCOc1ccc(/C=C/c2nc(C#N)c(NCCc3ccccc3)o2)cc1	i	?
76	CCOc1ccc(OCC)c(NC(=O)c2ccc(CNc3c(N4CCOCC4)c(=O)c3=O)cc2)c1	.	-22%
77	Cc1ccc(-c2cnc(NCc3ccc(C(F)(F)F)cc3)n2C)cc1	-5%	-3%
78	CCOc1ccccc1NC(=O)C(C)CC (centres undefined)	i	-5%
79	CCCNC(=O)c1onc(CSc2ccc(F)cc2)c1C(=O)NC(C)C	-12%	-7%
80	Cc1nn(Cc2ccc(F)cc2)c(C)c1NC(=O)c1cc(-c2ccco2)on1	-3%	-21%
81	C=CCNc1nc(Nc2ccc(-c3nc4ccccc4o3)cc2)nc(N2CCOCC2)n1	i	-17%
82	Cc1[nH]n(S(=O)(=O)c2ccccc2)c(=O)c1N=Nc1cccc(Cl)c1	-3%	-10%
83	COc1ccccc1OCCOc1ccc(/C=C2/C(=N)N3OC(C)=CC3=NC2=O)cc1OC	-11%	-8%
84	O=C1c2cccc3c(N4CCCCC4)ccc(c23)C(=O)N1CCO	-2%	10%
85	COc1ccc(C2C(C(=O)N3CCN(C)CC3)c3cc(OC)c(OC)cc3C(=O)N2C)cc1 (centres undefined)	i	-11%
86	Cc1cc(C)nc(NC(=S)NC(=O)c2ccccc2F)n1	i	4%
87	Cc1c(NS(=O)(=O)c2cccc(C(=O)NCc3ccco3)c2)c(=O)n(-c2ccccc2)n1C	i	-3%
88	CCOc1ccc(C(=O)Nc2ccc3c(c2)CCCN3S(=O)(=O)c2ccc(C)cc2)cc1	-29%	?
89	O=C(CC(=O)NCc1ccc(Cl)cc1)NCc1ccc(Cl)cc1	i	-13%
90	CS(=O)(=O)N1Cc2ccccc2CC1C(=O)OCC(=O)NCCc1ccc(S(N)(=O)=O)cc1 (centres undefined)	-19%	-10%

Looked up one by one from above (two):
item	SMILES	Vaccinia mCherry	VACV Venus inh
84	O=C1c2cccc3c(N4CCCCC4)ccc(c23)C(=O)N1CCO	-2%	10%
81	C=CCNc1nc(Nc2ccc(-c3nc4ccccc4o3)cc2)nc(N2CCOCC2)n1	i	-17%

As entered above.
Result of O=C1c2cccc3c(N4CCCCC4)ccc(c23)C(=O)N1CCO in VACV Venus inh: 10%
Result of COc1ccccc1OCCOc1ccc(/C=C2/C(=N)N3OC(C)=CC3=NC2=O)cc1OC in VACV Venus inh: -8%

Next section
item	SMILES	Vaccinia mCherry	VACV Venus inh
91	CC(=O)c1ccc(NC(=O)c2cc(-c3ccc(C)s3)nc3ccccc23)cc1	-16%	-12%
92	COc1ccc(NC(=O)NC2(C(=O)N3CCCC3)CCCCC2)cc1	-4%	8%
93	OC[C@@H]1CN(Cc2ccc(Cl)cc2)C[C@H](n2cnc3c(NCc4ccco4)ncnc32)O1	-7%	-14%
94	CCn1c(SCC(=O)N2c3ccccc3Sc3ccccc32)nnc1-c1ccco1	-9%	-26%
95	COc1cccc(CNC(=O)c2cnc(N3CCCCC3)c3ccccc23)c1	-13%	-8%
96	CC(C)Cn1nc(C(=O)N2CCc3ccccc32)c2ccccc2c1=O	i	-17%
97	COc1ccc(CNC(=O)Cn2ccc3cc(S(=O)(=O)N4CCCCC4)ccc32)c(OC)c1	-10%	1%
98	CCOc1ccc(C2CC(c3cccc(OC)c3OC)n3nnnc3N2)cc1Cl (centres undefined)	-27%	-23%
99	O=C(COC(=O)COc1ccc(Cl)cc1Br)NCc1cccs1	-11%	-5%
100	CCN(CC(=O)Nc1ccccc1OC)C(=O)CCOc1ccc(C(C)(C)C)cc1	-6%	-23%
101	CC(C)CC(=O)NC(=S)Nc1ccccc1C(F)(F)F	i	-14%
102	Cc1cc(NC(=O)CCC(=O)N(Cc2cccs2)C(C(=O)NC2CCCC2)c2ccncc2)no1 (centres undefined)	-1%	-22%
103	CC(C)(C)c1ccc(C(=O)N2CCC2(C)C(=O)Nc2cccc3ccccc23)cc1 (centres undefined)	-12%	-9%
104	C[C@@H]1COC(=O)[C@@H](Cc2ccc(F)cc2)CC/C=C\C[C@@H](CC(=O)NCCO)C(=O)N1	i	-7%
105	CC(C)(C)c1ccc(Oc2cccc(C3CC(=O)C(C4NCCc5ccccc54)C(=O)C3n3cncn3)c2)cc1 (centres undefined)	-12%	-7%
106	CCCC(=O)Nc1nnc([C@H]2C[C@H](O)[C@@H](CO)O2)s1	6%	-7%
107	Cc1ccc(C2C3CSCC=C3C(C#N)=C(N)C2(C#N)C#N)cc1 (centres undefined)	-15%	-2%
108	CCOc1ccccc1C1c2[nH]c3ccccc3c2C[C@H]2C(=O)N(C3CCN(Cc4ccccc4)CC3)CC(=O)N12 (some centres undefined)	-13%	-27%
109	O=C(COC(=O)c1cncc(Br)c1)NC1CCCC1	-21%	-9%
